Screens as filed in PubChem BioAssay.
DUX4 txn inh: blocks DUX4-driven transcriptional activation. AID 1224904. activity change, negative = inhibition, % (no concentration beside the values). 37,000 tested, 0.8% active. 293T-iDUX4 ZSCAN4-Gaussia luciferase reporter, 24 h; hits give low values;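 active = -10% or lower and over 25 points stronger than a control reporter; inconclusive = -10% or lower with a smaller gap; inactive = above -10%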;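 also: 0% = median of neutral control wells and -100% = median of positive control wells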
DUX4 txn inh difference: second read-out of DUX4 txn inh, no call of its own (marks repeat the call); Gaussia minus Italica difference, %; measured here: selective DUX4 reporter inhibition;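 worked out from the two reporters; negative = selective loss of the DUX4 reporter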
DUX4 txn inh control: recorded beside DUX4 txn inh, whose call it bears; activity change, negative = inhibition, %; measured here: Italica tet-on control reporter;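 0 = neutral control and -100 = positive control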
* = called active by the depositor; ? = inconclusive; . = not tested or not shown; & = joins results of further samples; ! = not confirmed by another sample. An excerpt (hit frequency here may not be typical).

Structure | DUX4 txn inh | DUX4 txn inh difference | DUX4 txn inh control
CO[C@H]1CN(C)C(=O)c2cc(NC(C)=O)ccc2OC[C@H](C)N(Cc2ccncc2)C[C@@H]1C | -7 | -6 | -0.9
Cn1cnc(S(=O)(=O)N2CC[C@@H]3[C@H](CO)Nc4ccc(C#Cc5ccccc5)cc4[C@@H]32)c1 | -5 | -4 | -1.0
COc1ccc2c3c([nH]c2c1)[C@H](CO)N(C(=O)c1cccc(F)c1)CC31CN(C(=O)CC2CC2)C1 | 22 | 12 | 9.9
CCCNC(=O)[C@@H]1[C@@H](CO)[C@@H]2Cn3c(ccc(-c4ccncc4)c3=O)[C@H]1N2Cc1ccccc1F | -1 | -1 | -0.6
COc1ccc2c3c(n(C)c2c1)[C@H](CO)N(C(=O)c1cccnc1)CC31CN(C(=O)c2cccnc2)C1 | 19 | 9 | 10
COCC#Cc1cnc2c(c1)C(=O)N([C@@H](C)CO)C[C@H](C)[C@@H](CN(C)C(=O)c1ccc3c(c1)OCO3)O2 | 6 | -1 | 6.2
CC(C)(C)[S@@](=O)N1Cc2cc(C(=O)NCC(F)(F)F)nc(-c3cccc(-c4cccc(F)c4)c3)c2[C@H]1CCO | 2 | -7 | 8.7
COc1cccc(-c2ccc([C@@H]3[C@@H](CO)N4C(=O)CN(C(=O)NC(C)C)C[C@@H]34)cc2)c1 | 8 | 4 | 4.1
C[C@H]1CN([C@@H](C)CO)S(=O)(=O)c2ccc(C#Cc3cccc(F)c3)cc2O[C@H]1CN(C)S(=O)(=O)c1cn(C)cn1 | -4 | -4 | -0.5
CCNC(=O)[C@H]1[C@H](CO)[C@H]2Cn3c(ccc(-c4ccncc4)c3=O)[C@@H]1N2CC1CC1 | 3 | 0 | 2.5
COc1cccc(CNC(=O)C[C@H]2CC[C@H]3[C@@H](COc4ccc(NC(C)=O)cc4C(=O)N3C)O2)c1 | -3 | -3 | 0.0
O=C(C[C@@H]1CC[C@H]2NC[C@@H](O)COC[C@@H]2O1)Nc1ccccc1 | 9 | -4 | 13
CO[C@H]1CN(C)C(=O)c2ccc(NC(=O)c3cnccn3)cc2OC[C@H](C)N(CC2CC2)C[C@H]1C | 4 | 2 | 1.6
C[C@@H]1CC=CC[C@@H](c2ccc3c(c2)OCO3)NC(=O)[C@@H](C)N(C)C(=O)c2ccccc2O1 (mixture of isomers) | -1 | 1 | -2.5
C[C@H]1CN([C@@H](C)CO)C(=O)c2c(c3ccccc3n2C)-c2ccccc2CO[C@H]1CN(C)S(C)(=O)=O | 2 | 1 | 1.2

An excerpt taken from the entries so far:
Structure | DUX4 txn inh | DUX4 txn inh difference | DUX4 txn inh control
CO[C@H]1CN(C)C(=O)c2cc(NC(C)=O)ccc2OC[C@H](C)N(Cc2ccncc2)C[C@@H]1C | -7 | -6 | -0.9
Cn1cnc(S(=O)(=O)N2CC[C@@H]3[C@H](CO)Nc4ccc(C#Cc5ccccc5)cc4[C@@H]32)c1 | -5 | -4 | -1.0
COc1ccc2c3c([nH]c2c1)[C@H](CO)N(C(=O)c1cccc(F)c1)CC31CN(C(=O)CC2CC2)C1 | 22 | 12 | 9.9
CCCNC(=O)[C@@H]1[C@@H](CO)[C@@H]2Cn3c(ccc(-c4ccncc4)c3=O)[C@H]1N2Cc1ccccc1F | -1 | -1 | -0.6

(listing goes on)
Structure | DUX4 txn inh | DUX4 txn inh difference | DUX4 txn inh control
O=C(CN1CCOCC1)N1CCCCN2[C@@H](CO)[C@H](c3ccc(Br)cc3)[C@@H]2C1 | 12 | 1 | 11
CN1CCN(C(=O)C[C@H]2CC[C@@H]3[C@H](COC[C@H](O)CN3Cc3cccc(F)c3)O2)CC1 | 12 | 4 | 8.1
C[C@@H]1CN([C@@H](C)CO)C(=O)c2cc(NS(C)(=O)=O)ccc2O[C@@H]1CN(C)C | -2 | -6 | 4.1
CO[C@@H]1CN(C)C(=O)c2cc(NC(=O)C3CCOCC3)ccc2OC[C@@H](C)N(C(C)=O)C[C@@H]1C | 4 | 1 | 2.9
CCCC(=O)N1CC2(CCN(Cc3cccnc3)CC2)c2c([nH]c3cc(OC)ccc23)[C@@H]1CO | 6 | -5 | 11
O=C(Nc1nccs1)[C@H]1[C@H](CO)[C@H]2Cn3c(ccc(-c4cccnc4)c3=O)[C@H]2N1CC1CCCC1 | -3 | 1 | -3.4
O=C(Nc1cc(F)ccc1F)N[C@@H]1CC[C@@H](CC(=O)N2CCc3ccccc3C2)O[C@H]1CO | ? | . | .
N#C[C@@H]1[C@@H](c2ccccc2C2=CCCCC2)[C@H](CO)N1C(=O)c1cccc(F)c1 | ? | . | .
CN(C[C@@H]1N[C@@H](CO)[C@@H]1c1ccc(C2=CCCC2)cc1)S(C)(=O)=O | 6 | 3 | 2.8
C[C@H]1CN([C@@H](C)CO)S(=O)(=O)c2ccc(-c3ccncc3)cc2O[C@@H]1CN(C)C(=O)c1ccc2c(c1)OCO2 | 0 | 0 | -0.3
CCS(=O)(=O)Nc1ccc2c(c1)C(=O)N(C)[C@H]1CC[C@H](CC(=O)N3CCN(C)CC3)O[C@@H]1CO2 | 2 | -3 | 4.4
C/C=C/c1ccc2c(c1)O[C@@H](CN(C)C(=O)c1ccccn1)[C@@H](C)CN([C@H](C)CO)S2(=O)=O | 4 | 0 | 3.0
COCCNC(=O)[C@@H]1[C@@H](CO)[C@@H]2Cn3c(ccc(C4=CCCCC4)c3=O)[C@H]1N2C(=O)C1CC1 | -5 | -5 | -0.6
CCCNC(=O)C[C@H]1CC[C@H]2[C@@H](COC[C@@H](O)CN2C(=O)CC)O1 | 5 | 3 | 1.8
O=C(Nc1ccc(F)cc1)N1CC(=O)N2[C@H](CO)[C@@H](c3ccc(Br)cc3)[C@@H]2C1 | 6 | 3 | 2.2
COc1ccc2c3c([nH]c2c1)[C@H](CO)N(CC1CC1)CC31CCN(C(=O)Nc2cccc(F)c2)CC1 | 5 | 12 | -7.3
N#C[C@@H]1N[C@@H](CO)[C@H]1c1ccc(-c2ccccc2F)cc1 | 1 | 1 | 0.2
C/C=C/c1ccc(C2[C@H]3CNC[C@@H]2N3C(=O)Nc2ccc(F)cc2)cc1 (stereo partly specified) | 32&18 | 18&20 | 14&-2.5
COc1ccc2c3c(n(C)c2c1)[C@@H](CO)N(CC1CCOCC1)CC31CN(CC2CCOCC2)C1 | 8 | 11 | -3.7
C[C@@H]1CN([C@H](C)CO)C(=O)c2cc(NC(=O)Nc3ccc4c(c3)OCO4)ccc2O[C@@H](C)CCCCO[C@H]1CN(C)S(=O)(=O)c1ccccc1 | 3 | 3 | -0.3
CN1c2ccc(-c3ccccc3F)cc2[C@H]2[C@H](CCN2S(=O)(=O)c2ccccc2F)[C@H]1CO | ? | . | .
CN1[C@H](C(=O)NCCN2CCCCC2)[C@@H](CO)[C@@H]2Cn3c(ccc(-c4ccc(F)cc4)c3=O)[C@@H]21 | -2 | 2 | -4.2
C[C@@H]1CN([C@@H](C)CO)S(=O)(=O)c2ccc(C#C[C@@H](C)O)cc2O[C@H]1CN(C)Cc1ccc(-c2ccccc2)cc1 | -5 | -4 | -1.1
C[C@H]1CN([C@@H](C)CO)C(=O)c2c(c3ccccc3n2C)-c2ccccc2CO[C@H]1CN(C)C(=O)C1CC1 | 11 | 11 | -0.4
COc1ccc(C(=O)N2C[C@@H]3[C@H](c4ccccc42)[C@H](CO)N3C(=O)NC(C)C)cc1 | 0 | -2 | 2.0
C[C@@H]1CN([C@@H](C)CO)C(=O)c2cc(NC(=O)c3ccncc3)ccc2O[C@@H]1CN(C)Cc1ccc(Oc2ccccc2)cc1 | -4 | 32 | -35
CNC[C@H]1Oc2c(NC(=O)Nc3ccc(C(F)(F)F)cc3)cccc2C(=O)N([C@@H](C)CO)C[C@H]1C | 0 | 3 | -3.1
COc1ccc2c3c([nH]c2c1)[C@@H](CO)N(C)CC31CN(C(=O)C2CC2)C1 | 11 | 13 | -1.9
C[C@H](CO)N1C[C@H](C)[C@@H](CN(C)S(=O)(=O)c2ccccc2F)OCc2ccccc2-c2ccccc2C1=O | ? | . | .
COc1ccccc1CN(C)C[C@H]1OCc2cnnn2CCCC(=O)N([C@@H](C)CO)C[C@H]1C | 2 | -1 | 2.6
COc1cccc(CN2C[C@@H]3N[C@H](C2)C3c2ccc(-c3ccccc3C)cc2)c1 (stereo partly specified) | -35*! | -32* | -3.0*
CNC[C@H]1OCCCC[C@@H](C)Oc2ccc(NC(=O)C3CCCCC3)cc2C(=O)N([C@H](C)CO)C[C@H]1C | -1 | -1 | -0.2
CC=Cc1ccc2n(c1=O)C[C@@H]1[C@@H](CO)[C@H](C(=O)NC3Cc4ccccc4C3)N(CC)[C@H]21 (mixture of isomers) | -1 | -1 | -0.1
COc1ccc(NC(=O)N(C)C[C@@H]2Oc3ncc(C#C[C@@H](C)O)cc3C(=O)N([C@H](C)CO)C[C@H]2C)cc1 | 14 | 23 | -9.6
O=C(C1CCOCC1)N1CC(=O)N2[C@@H](CO)[C@@H](c3ccc(-c4cccnc4)cc3)[C@@H]2C1 | 12 | 2 | 9.5
CCNC(=O)C[C@@H]1CC[C@@H]2[C@H](COC[C@H](O)CN2S(=O)(=O)c2ccc(Oc3ccccc3)cc2)O1 | 1 | -1 | 2.1
Cc1ccc(S(=O)(=O)N2C[C@@H](O)COC[C@@H]3O[C@H](CC(=O)NCC4CCCCC4)CC[C@H]32)cc1 | 1 | 4 | -3.1
CN1C(=O)c2cc(NC(=O)Cc3cccs3)ccc2OC[C@@H]2O[C@@H](CC(=O)N[C@@H]3CCN(Cc4ccccc4)C3)CC[C@H]21 | 1 | 3 | -2.2
CN(C)C(=O)c1cccc(-c2ccc([C@@H]3[C@H](CO)N4CCCCN(C(=O)C5CCC5)C[C@@H]34)cc2)c1 | 15 | 15 | 0.7
O=C(C[C@H]1C[C@H]2c3cc(NC(=O)Cc4ccncc4)ccc3O[C@H]2[C@@H](CO)O1)NCc1ccc2c(c1)OCO2 | 5 | 4 | 0.8
O=C(NCC1CC1)[C@H]1[C@H](CO)[C@H]2Cn3c(ccc(C4=CCCC4)c3=O)[C@H]2N1Cc1ccccc1F | 1 | 7 | -5.7
CO[C@@H](CN(C)S(=O)(=O)c1cn(C)cn1)[C@@H](C)CN(C(=O)Nc1ccc(F)cc1)[C@@H](C)CO | -2 | -1 | -1.1
COc1ccc2c3c(n(C)c2c1)[C@H](CO)N(C(=O)C1CCCCC1)CC31CCN(C)CC1 | 19 | 16 | 3.0
Cc1noc(C)c1NC(=O)Nc1ccc2c(c1)C(=O)N([C@H](C)CO)C[C@H](C)[C@@H](CN(C)C(=O)NC1CCCCC1)OCCCC[C@@H](C)O2 | 5 | 3 | 1.9
CC(C)[C@H]1COCn2nncc2CC[C@H](Cc2ccc(Cl)cc2)C(=O)N1 | 1 | -2 | 3.0

Three entries already listed, ordered by the value under DUX4 txn inh control, rising.
Structure | DUX4 txn inh | DUX4 txn inh difference | DUX4 txn inh control
CNC[C@H]1OCCCC[C@@H](C)Oc2ccc(NC(=O)C3CCCCC3)cc2C(=O)N([C@H](C)CO)C[C@H]1C | -1 | -1 | -0.2
CN(C)C(=O)c1cccc(-c2ccc([C@@H]3[C@H](CO)N4CCCCN(C(=O)C5CCC5)C[C@@H]34)cc2)c1 | 15 | 15 | 0.7
Cc1noc(C)c1NC(=O)Nc1ccc2c(c1)C(=O)N([C@H](C)CO)C[C@H](C)[C@@H](CN(C)C(=O)NC1CCCCC1)OCCCC[C@@H](C)O2 | 5 | 3 | 1.9

The list goes on.
Structure | DUX4 txn inh | DUX4 txn inh difference | DUX4 txn inh control
O=C(C[C@@H]1C[C@H]2c3cc(NC(=O)CC4CC4)ccc3O[C@H]2[C@@H](CO)O1)NCc1cccc(F)c1 | 4 | -1 | 5.6
CCCNC(=O)N1[C@H](C#N)[C@@H](c2ccccc2C2=CCCC2)[C@@H]1CO | -1 | -1 | 0.0
CN(C)C(=O)c1cccc(-c2ccc(C3[C@@H]4CN(C(=O)c5cnccn5)C[C@H]3N4)cc2)c1 (stereo partly specified) | 15&10 | -6&10 | 21&-0.5
C[C@@H]1CN([C@@H](C)CO)C(=O)c2ccccc2-c2ccccc2CO[C@@H]1CN(C)S(=O)(=O)c1ccccc1C#N | 2 | 3 | -0.6
O=C(C[C@H]1CC[C@H]2[C@@H](COC[C@H](O)CN2C(=O)c2ccccc2F)O1)N1CCN(c2ccccc2)CC1 | 9 | 15 | -5.2
CCCN1[C@@H]2Cn3c(ccc(-c4cccc(F)c4)c3=O)[C@H]1[C@@H](C(=O)NCC)[C@@H]2CO | 3 | -3 | 6.0
COc1ccccc1-c1ccc2c(c1)O[C@@H](CN(C)Cc1ccc3c(c1)OCO3)[C@@H](C)CN([C@H](C)CO)S2(=O)=O | 0 | 0 | 0.3
CCCN1[C@@H]2c3ccc(C4=CCCCC4)c(=O)n3C[C@H]1[C@H](CO)[C@H]2C(=O)N1CCc2ccccc2C1 | -5 | 1 | -5.9
N#Cc1ccc(-c2ccc([C@H]3[C@H]4CN(C(=O)C5CCCCC5)CC(=O)N4[C@H]3CO)cc2)cc1 | 3 | 1 | 2.0
CC(C)NC(=O)N[C@@H]1CC[C@@H](CC(=O)NCCCN(C)C)O[C@@H]1CO | 3 | -2 | 5.5
CN1C(=O)c2cc(NS(C)(=O)=O)ccc2OC[C@H]2O[C@H](CC(=O)N3CCOCC3)CC[C@H]21 | -5 | -3 | -2.2
COc1ccc2c3c(n(C)c2c1)[C@@H](CO)N(S(=O)(=O)c1ccc(C)cc1)CC31CN(S(=O)(=O)c2ccc(C)cc2)C1 | ? | . | .
C[C@H](NC(=O)C[C@H]1CC[C@H](NC(=O)Cc2ccccn2)[C@@H](CO)O1)c1ccccc1 | 3 | 3 | 0.6
